Screening results (PubChem)
Rango complex inh = prevents formation of the Rango-importin beta complex; Q14974; Rango CFP/YFP FRET sensor + importin beta, 45 min; Potency, µM (doses to about 92.2 µM), for inactives: top-dose inhibition of complex formation; hit rate 0.031% among 340,000; AID 540263; active = rising FRET ratio curve, often small or poorly fitted; inconclusive = mostly compound fluorescence or quenching in the first reads; inactive = flat curves in all reads;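 further: potency means the concentration at half of the fitted maximal effect; 0% = DMSO wells and 100% = buffer wells lacking importin beta; nearly all actives have a fitted effect of over 15% in size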
Target sequence (Q14974 whole entry, looked up): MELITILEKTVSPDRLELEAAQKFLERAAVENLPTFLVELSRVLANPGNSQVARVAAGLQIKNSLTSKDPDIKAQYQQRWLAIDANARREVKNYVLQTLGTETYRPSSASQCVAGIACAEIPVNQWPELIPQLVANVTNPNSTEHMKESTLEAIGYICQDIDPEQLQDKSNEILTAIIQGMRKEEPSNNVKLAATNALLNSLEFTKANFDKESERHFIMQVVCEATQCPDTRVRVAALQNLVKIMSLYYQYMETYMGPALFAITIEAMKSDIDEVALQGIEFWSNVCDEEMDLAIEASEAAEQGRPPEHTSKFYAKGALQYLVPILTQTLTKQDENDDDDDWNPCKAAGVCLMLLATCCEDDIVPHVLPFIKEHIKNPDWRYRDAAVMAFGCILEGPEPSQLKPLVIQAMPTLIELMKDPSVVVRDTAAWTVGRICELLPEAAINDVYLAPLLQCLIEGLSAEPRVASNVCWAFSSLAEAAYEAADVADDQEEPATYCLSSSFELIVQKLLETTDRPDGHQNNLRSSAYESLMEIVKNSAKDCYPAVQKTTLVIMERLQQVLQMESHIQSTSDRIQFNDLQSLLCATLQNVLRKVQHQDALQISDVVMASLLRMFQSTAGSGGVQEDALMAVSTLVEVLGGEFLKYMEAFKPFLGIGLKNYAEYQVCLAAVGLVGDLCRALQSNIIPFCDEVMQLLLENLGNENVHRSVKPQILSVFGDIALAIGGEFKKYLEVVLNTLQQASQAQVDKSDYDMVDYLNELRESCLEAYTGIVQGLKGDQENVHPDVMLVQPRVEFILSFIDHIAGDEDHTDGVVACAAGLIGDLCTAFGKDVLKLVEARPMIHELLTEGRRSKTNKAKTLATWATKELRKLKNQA
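Inhibition scored from the CFP 486 nm/YFP 530 nm FRET ratio 45 min after adding 0.125 microM importin beta to 50 nM Rango biosensor preincubated 5 min with compound (room temperature, PBS with DTT, Tween-20, BSA). No-importin wells as positive control.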
miR-21 FLuc = raises the signal of a miR-21 reporter; HeLa miR-21 FLuc reporter, luciferase, 48 h; Potency, µM (highest dose often 38.3 µM), for inactives: top-dose reporter change, positive = more light; 340,000 tested, under 10 active; AID 2288; active = well fitted rising curve with a large enough effect; inconclusive = small, poorly fitted or top-dose-only effect; inactive = no such curve, though single readings can be large or run the other way;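 further: % of control where 0% means no effect; miR-21 action dims this reporter so a rising signal means less miR-21 action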
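Luminescence from a firefly luciferase reporter carrying a miR-21 binding site downstream, stably expressed under a CMV promoter in HeLa cells that make miR-21 endogenously, reports miRNA modulation after 48 h compound exposure up to approximately 40uM final.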
Rango release inh = inhibitors of RanGTP-induced Rango-importin beta complex dissociation; hit rate 0.071% among 340,000; Potency, µM (top dose mostly 46.1 µM), for inactives: at the highest dose activity change, negative = inhibition; O95149+P62826; Biochemical FRET Rango-importin beta, RanGTP-induced dissociation; AID 540253; active means falling FRET ratio curve, often poorly fitted, with flat reads before Ran was added; inconclusive means other falling curves, or compound fluorescence or quenching; inactive means flat or rising ratio curve;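 further: potency means the concentration at half of the fitted maximal effect; % of control where 0% means no effect; nearly all actives have a fitted effect of over 45% in size; -100% = wells without RanGTP and RCC1; the record marks most hits as doubtful in a second field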
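Two FRET readings bracket the reaction: one 5 min after compound meets Rango–importin beta, another 45 min after RanGTP-RCC1 (0.6 uM Ran, 0.2 uM RCC1, 2 mM GTP) is added. Only the second defines inhibition.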
GLA inh pH 4.5 = alpha-galactosidase A (human) inhibition, pH 4.5. P06280. purified enzyme, 4-MU-alpha-Gal fluorescence, pH 4.5. activity change, negative = inhibition, % at 105 µM. 230,000 tested, under 10 active. AID 1467; inconclusive = small, poorly fitted or top-dose-only inhibition, or a rising curve; inactive = flat fitted curve, though single readings scatter; no compound was filed as active;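 further: 0% = full activity with enzyme and -100% = basal without enzyme; dose as in the result columns while the protocol names 77 µM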
* = called active by the depositor; ? = inconclusive; nt = not tested or not shown; [ ] = another dose, or the depositor's remark. The list is partial, so the mix of outcomes need not match the whole.

Rango complex inh	miR-21 FLuc	Rango release inh	GLA inh pH 4.5	molecule
-1.1%	nt	6%	nt	Cc1cc(C)n2nc(C(=O)OC(C)C(=O)c3cc(C)c(C)cc3C)nc2n1 (stereo not given)
2.7%	-9%	-15%	4	Fc1ccccc1CNc1ccc(Cl)cc1
3.7%	-9%	2%	2	C/C(=N\O)c1cc(Cl)ccc1O
1.0%	-3%	-10%	3	S=C(Nc1cccnc1)NC1CCCC1
-0.4%	21%	-14%	nt	CC(=O)Oc1ccc(/C=C/c2nc3ccccc3c(=O)o2)cc1
-5.1%	0%	0%	nt	COc1ccc(-c2nc(CSCC(=O)NC3CCCC3)c(C)o2)cc1OC
?	nt	?	nt	COc1cccc2sc3cc(NCc4ccc(C)o4)ccc3c(=O)c12
-4.2%	-1%	-13%	10	COc1ccc(NC(=O)CSc2nc(C)cc(C)n2)c([N+](=O)[O-])c1
-0.8%	nt	14%	nt	Cc1cccc(C(=O)NNC(=O)c2n[nH]c(=O)c3ccccc23)c1C
0.9%	6%	0%	15	COC(=O)C1=C(C)N(CCc2ccccc2)C(=O)C1(NS(=O)(=O)c1ccc(NC(C)=O)cc1)C(F)(F)F (stereo not given)
?	-13%	-23%	-2	O=C1C2C3C=CC(CC3)C2C(=O)N1/N=C/c1ccccc1O (stereo not given)
4.0%	-36%	30%	7	Cc1cccc(-c2noc(C3CCCCC3)n2)c1
6.4%	-11%	-15%	-1	C=CCCCOc1ccc(C(=O)O)cc1
2.3%	1%	-7%	nt	COc1ccccc1CNC(=O)c1ccncc1
-1.1%	?	0%	-30	O=C1CSc2ccc(C(=O)Nc3cccc(S(=O)(=O)Nc4ccc(Br)cc4)c3)cc2N1
-4.3%	-3%	-11%	-14	Cc1c(-c2ccccc2)nc2ccccc2c1C(=O)OCC(=O)Nc1ncc(C(F)(F)F)cc1Cl
0.8%	-3%	-8%	nt	Cc1ccc(NC(=O)CCN2C(=O)c3ccccc3C2=O)cc1
0.7%	-34%	-6%	7	COc1ccccc1OCCCCOc1ccccc1F
-1.1%	-9%	-5%	-4	Cc1nnc(NC(=O)CSC2CCCCC2)s1
2.9%	-6%	3%	?	CCN(CC)S(=O)(=O)c1ccc(NC(=O)C(C)N(c2ccccc2)S(C)(=O)=O)cc1 (stereo not given)
-1.9%	-38%	0%	4	CCOc1ccccc1N(C(=O)Nc1ccc(Cl)cc1)C1=NC(C)CS1 (stereo not given)
-4.6%	-10%	-5%	-15	COc1ccc(/C=C2\OC(=S)N(C)C2=O)cc1
0.8%	nt	-5%	nt	COc1ccc(NC(=O)CN(C)C(=O)CSc2ccc(Br)cc2)cc1
1.1%	-13%	0%	-1	COC(=O)C(C)n1cnc2c(nnn2-c2ccc(OC)cc2)c1=O (stereo not given)
2.6%	-17%	0%	-17	CN(C)c1nc(Cl)cc(N2CCOCC2)n1
0.8%	3%	-2%	nt	CN(C)C(=S)Oc1ccccc1-c1ccccc1OC(=S)N(C)C
0.3%	1%	-7%	3	CC(=O)c1c(N2CCOCC2)nc2ccc(Br)cc2c1-c1ccccc1
5.2%	-1%	23%	?	CC(C)Cn1c(-c2csc(C(C)C)c2)n[nH]c1=S
-1.6%	nt	-1%	-20	Cc1cccc([C@H]2[C@@H]3C=CCC[C@@H]3C(=O)N2Cc2ccccc2)c1
1.6%	1%	-7%	10	C=CCNC(=O)NC(=O)CSc1nnc(C(F)(F)F)n1C
0.8%	-4%	-8%	-9	CCOC(=O)C(Cc1ccc(Cl)cc1Cl)c1ccno1 (stereo not given)
3.1%	-2%	2%	3	COc1ccccc1N1CCN(C(=O)CN2C(=O)c3ccccc3S2(=O)=O)CC1
?	-5%	12%	nt	Cn1c(=O)c(C(=O)NNC(=O)c2ccccc2F)c(O)c2ccccc21
1.3%	nt	-4%	nt	O=C(Cc1cccs1)Nc1ccc(F)c(S(=O)(=O)N2CCOCC2)c1
-0.9%	-9%	3%	nt	Cc1ccc(S(=O)(=O)N(C)CC(=O)Nc2ccc3c(c2)OCO3)cc1
4.7%	nt	1%	nt	CCC(C)(C)C1CCC2(CC1)NC(=O)N(CC(=O)N1CCN(C(=O)c3ccco3)CC1)C2=O (stereo not given)
-4.2%	-1%	-1%	-4	O=C(CSc1nnc(Cn2nnc(-c3ccccc3)n2)n1-c1ccccc1)Nc1ccccc1
3.0%	-4%	1%	4	O=C(COc1ccccc1)Nc1ccccc1N1CCCCC1
0.8%	-4%	0%	10	CCOC(=O)C(=CNc1cc(C)nn1C(C)(C)C)C(=O)OCC
-3.1%	-19%	3%	nt	COc1ccc(NC(=O)Nc2nnc(Cc3ccccc3)s2)cc1
5.0%	-52%	-6%	nt	O=C(NCC(O)c1ccccc1)c1cccs1 (stereo not given)
-0.3%	14%	-10%	-2	CCOC(=O)N1CCN(C(=O)COc2ccc(S(=O)(=O)Nc3ccc(OCC)cc3)cc2)CC1
-1.4%	11%	-20%	-6	CCCCC(=O)Nc1nc(C)c(-c2csc(Nc3ccc(Cl)cc3)n2)s1
1.4%	-34%	-8%	0	O=C(NNC(=O)c1ccccc1Cl)c1ccccc1Cl
0.4%	2%	9%	7	Cc1cc(Cl)ccc1C(=O)C1CCCN(C(=O)c2cscn2)C1 (stereo not given)
8.2%	0%	7%	nt	CCN1CCC(N2CCN(c3ccccc3OC)CC2)CC1
-2.0%	-8%	-15%	nt	COc1ccc(S(=O)(=O)N2CCCCC2C)cc1 (stereo not given)
2.6%	nt	10%	nt	COC(=O)c1ccccc1S(=O)(=O)N1CCC(C(=O)NC2CCCCC2C)CC1 (stereo not given)
0.4%	?	-11%	2	C=CCn1c(C)cc(C(=O)Cn2ncc(Cl)c(Cl)c2=O)c1C
-2.3%	0%	22%	6	CCOc1ccc(-c2c(C)n([O-])c3c([n+]2=O)CCCCC3)cc1
1.5%	-2%	13%	nt	COc1ccc2nc(N(CCN(C)C)C(=O)c3ccc4ccccc4c3)sc2c1
?	-5%	-12%	-2	C=CCNC(=O)C(=O)NCC1CCCN1CC (stereo not given)
?	-1%	?	2	CNC(=O)c1ccc(-c2sc3nc(N4CCOCC4)c4c(c3c2N)CCCC4)o1
4.8%	9%	22%	nt	O=C(NCC1CC1)c1onc(CSc2nc3ccccc3[nH]2)c1C(=O)NCC1CC1
1.9%	-45%	-7%	-1	COc1ccc2[nH]cc(C(=O)CNc3nc(C)cs3)c2c1
0.4%	0%	-6%	nt	CCC(Oc1ccccc1)C(=O)NCCCN1CCOCC1 (stereo not given)
-7.2%	nt	1%	nt	CCOC(=O)c1[nH]cnc1C(=O)N[C@@H](C)c1ccccc1
0.1%	4%	39%	5	CCN(CC)CC(=O)NCc1cc(-c2ccc(OC)cc2)no1
-0.5%	1%	-2%	7	CC(C)c1ccc(NC(=O)CSC(C)c2nc3ccccc3c(=O)[nH]2)cc1 (stereo not given)
-0.8%	0%	-7%	-1	Cc1ccccc1OCCn1cc(C(=S)N2CCN(C)CC2)c2ccccc21

Some of these compounds in order of SMILES length, ascending:
Rango complex inh	miR-21 FLuc	Rango release inh	GLA inh pH 4.5	molecule
?	-5%	-12%	-2	C=CCNC(=O)C(=O)NCC1CCCN1CC (stereo not given)
1.9%	-45%	-7%	-1	COc1ccc2[nH]cc(C(=O)CNc3nc(C)cs3)c2c1
0.4%	2%	9%	7	Cc1cc(Cl)ccc1C(=O)C1CCCN(C(=O)c2cscn2)C1 (stereo not given)
1.5%	-2%	13%	nt	COc1ccc2nc(N(CCN(C)C)C(=O)c3ccc4ccccc4c3)sc2c1

(next part)
Rango complex inh	miR-21 FLuc	Rango release inh	GLA inh pH 4.5	molecule
0.5%	nt	5%	nt	OCCNc1nc(Nc2cc(Cl)ccc2OC2CCCC2)nc(N2CCCC2)n1
0.3%	-6%	8%	nt	O=C(NCc1ccc2c(c1)OCO2)Nc1ccc([N+](=O)[O-])cc1
2.3%	nt	-3%	nt	COc1ccc(C(=O)NCCS(=O)(=O)N2CCN(C(=O)c3ccco3)CC2)cc1
?	0%	0%	3	CCOC(=O)CCc1c(C)nc2ncnn2c1C
-2.9%	-10%	?	-6	COc1ccccc1N(CC(=O)NCc1ccccc1)C(=O)CCC(=O)Nc1cc(C)ccn1
0.0%	nt	5%	nt	Cc1cc(S(=O)(=O)Nc2ccc(C(=O)NCC3(N(C)C)CCCCC3)cc2)ccc1F
3.7%	-4%	9%	3	CCOC(=O)C1(Cc2cccc(Cl)c2)CCCN(C(=O)CCC(=O)N(C)C)C1 (stereo not given)
-0.2%	-5%	-5%	-1	O=C(NC1CC1)C1=C[C@H](C2CCCCC2)C[C@H](OCc2ccc(CO)cc2)O1
5.0%	-29%	18%	-1	Cc1ccc(NC(=O)CSc2nnc(-c3ccccc3Br)o2)cc1C
3.4%	7%	0%	0	COc1ccnc(Oc2ccccc2)c1C(=O)N/C=N/OCc1ccccc1
-1.3%	0%	15%	-24	COc1ccc(S(=O)(=O)NCC2CCCN(C(=O)c3sccc3C)C2)cc1 (stereo not given)
?	nt	-2%	nt	CCN(C[C@H]1N[C@@](C)(C(=O)OC)[C@H]2C(=O)N(C)C(=O)[C@@H]12)S(=O)(=O)c1ccccc1
-3.1%	-3%	7%	4	CCC1CCCCN1C(=O)CNCC1CCCO1 (stereo not given)
-1.6%	6%	3%	-7	CN(C)N=Nc1nc2c(c(=O)n(C)c(=O)n2C)n1C
1.1%	-23%	1%	nt	O=S(=O)(Cc1ccccc1)NCCc1ccc(F)cc1
0.5%	5%	1%	-8	Cc1ccc(C(NC(=O)C(C)C)c2cc([N+](=O)[O-])c3cccnc3c2O)cc1 (stereo not given)
-0.3%	2%	23%	-3	Cc1ccc(NC(=O)Cn2c(=O)oc3cc(S(=O)(=O)N4CCC(C)CC4)ccc32)cc1C
-2.5%	-6%	1%	nt	COc1ccc(CN2CCNC(=O)C2CC(=O)N(C)Cc2cc(C)no2)cc1OC (stereo not given)
?	2%	15%	9	CC(=O)c1c(C)nc(-c2ccccc2)n1O
-4.2%	1%	3%	1	O=C(CSc1nnc(CNC(=O)c2cccs2)o1)NC1CCCC1
0.2%	5%	-8%	0	Cc1ccc(NC(=S)N(CCCN2CCN(C)CC2)Cc2cccs2)cc1C
-1.6%	3%	-6%	3[21.1 µM]	O=C1c2ccccc2NC(c2ccccn2)N1NS(=O)(=O)c1ccccc1 (stereo not given)
6.6%	-10%	0%	-7	COc1cccc(Sc2ccccc2CN(C)C)c1
2.1%	-3%	-6%	-3	COc1ccc(OCCn2cc(/C=N/NC(=O)c3ccncc3)c3ccccc32)cc1
-1.3%	-6%	2%	2	CCOC(=O)N1CCC(NC(=O)CCCN2C(=O)CSc3ncccc32)CC1
1.6%	nt	0%	nt	C=CC[C@H](CC(=O)NCCO)C(=O)N[C@@H](C)COC(=O)[C@H](CC=C)CC(=O)OC(C)(C)C
-4.8%	-62%	6%	0	COc1ccccc1CC(=O)NCc1csc(-c2cccs2)n1
-4.1%	-6%	9%	1	CC(C)=C1C2C=CC1C(C(=O)Nc1cc(C)ccc1C)C2C(=O)O (stereo not given)
-5.6%	10%	9%	-3	COc1ccc(C(=O)Cn2c(Cl)nc3c2c(=O)n(C)c(=O)n3C)cc1
0.1%	-51%	3%	-12	Cc1cc(C)cc(NC(=O)CSc2nnc(-c3ccccc3C)o2)c1
-1.5%	-9%	0%	-7	COC(=O)[C@H](CCSC)NC(=O)Nc1ccc(C)cc1C
0.7%	-5%	-9%	2	CN(c1ccccc1)S(=O)(=O)c1cccc(Cl)c1Cl
1.7%	0%	19%	6	Cc1ccc(/C=C/C(=O)O)cc1S(=O)(=O)NCc1cccnc1

Molecules shown so far with a CF3 group:
Rango complex inh	miR-21 FLuc	Rango release inh	GLA inh pH 4.5	molecule
0.9%	6%	0%	15	COC(=O)C1=C(C)N(CCc2ccccc2)C(=O)C1(NS(=O)(=O)c1ccc(NC(C)=O)cc1)C(F)(F)F (stereo not given)
-4.3%	-3%	-11%	-14	Cc1c(-c2ccccc2)nc2ccccc2c1C(=O)OCC(=O)Nc1ncc(C(F)(F)F)cc1Cl
1.6%	1%	-7%	10	C=CCNC(=O)NC(=O)CSc1nnc(C(F)(F)F)n1C
